Source: PubChem BioAssay
GIV-Gai inh = blocks GIV peptide binding to rat Galpha-i3; AID 1224905; percent of control (FP), % (no concentration beside the values); hit rate 0.42% among 210,000; Galpha-i3/FITC-GIV peptide fluorescence polarization, 90 min; hits give low values; scaled: aluminum fluoride 0%, vehicle 100%; P08753;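 active = replicate mean at 85% of control or lower, very high polarization wells dropped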;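 note: wells of about 15 µL received 100 nL stock; the first replicate is given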
Target sequence (P08753 whole entry, looked up): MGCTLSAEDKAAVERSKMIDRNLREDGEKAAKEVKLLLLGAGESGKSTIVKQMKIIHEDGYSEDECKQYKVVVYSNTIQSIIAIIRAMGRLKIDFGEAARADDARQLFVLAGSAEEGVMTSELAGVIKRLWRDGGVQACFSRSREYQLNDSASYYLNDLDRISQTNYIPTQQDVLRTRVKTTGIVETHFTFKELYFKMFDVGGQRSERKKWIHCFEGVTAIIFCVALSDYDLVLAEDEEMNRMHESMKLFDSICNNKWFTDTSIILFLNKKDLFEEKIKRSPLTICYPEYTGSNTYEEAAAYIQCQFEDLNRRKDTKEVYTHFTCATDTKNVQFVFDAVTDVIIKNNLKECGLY
An asterisk follows results filed as active. A portion of the library; count on the stated rates, not on these rows.

GIV-Gai inh	SMILES
110.4	Cc1ccc(-c2nc3ccccc3c(=O)n2CC(=O)Nc2ccc(C)c(F)c2)cc1
98.0	CCOC(=O)C(C)NC(=O)N1CCCC1c1cc(CC)no1 (configuration not stated)
100.2	Cc1nn(-c2ccc3nnc(C)n3n2)c2c1C(c1ccc(F)cc1F)CC(=O)N2 (configuration not stated)
101.5	Cc1ccc(C(=O)N2CCN(C(=O)c3cc4ccccc4[nH]3)CC2)cc1C
102.5	CCOC(=O)c1[nH]c(C)c(CN(C(=O)NC2CCCCC2)C2CCCCC2)c1C
102.7	CN(C)S(=O)(=O)N(CC(=O)N1CCN(c2ncccn2)CC1)c1ccc(F)cc1
105.0	Cc1ccccc1N1CC(O)(c2cccc([N+](=O)[O-])c2)[N+]2=C1SCC2 (configuration not stated)
121.2	NC(=O)c1sc2nc3c(c(-c4ccc([N+](=O)[O-])cc4)c2c1N)C(=O)c1ccccc1-3

(more compounds)
GIV-Gai inh	SMILES
99.1	Cc1n[nH]c(C)c1S(=O)(=O)N1CCCC(c2nnc(C(=O)Nc3ccc(F)cc3)s2)C1 (configuration not stated)
112.3	CCCCCCCCOC(=O)c1ccc(-c2ccc(-c3ccc(C(=O)OCCCCCCCC)cc3)cc2)cc1
96.5	CCOC(=O)C1=C(C)NC2=C(C(=O)C(C(=O)OCC)C(c3cccc(OC)c3)C2)C1c1sccc1C (configuration not stated)
111.6	COc1ccc(N2CCN(S(=O)(=O)c3cc(C(=O)Nc4ccc(Cl)c(Cl)c4)ccc3F)CC2)cc1
111.5	CC(=O)C12c3ccccc3C(c3ccccc31)C1C(=O)N(c3cccc(Cl)c3)C(=O)C12 (configuration not stated)
103.4	CCOC(=O)Cn1cccc(S(=O)(=O)N2CCC(C)CC2)c1=O
100.2	CCc1ccc(-n2c(=S)sc3c(=O)[nH]c(SCC(=O)Nc4nccs4)nc32)cc1
105.5	CCCOc1ccc2c(c1)C(=NNC(N)=S)c1cc(OCCC)ccc1-2

Further compounds:
GIV-Gai inh	SMILES
106.8	COc1ccccc1N1C(=O)N(Cc2c(F)cccc2Cl)c2ccccc2S1(=O)=O
109.5	Fc1ccc2nc3c(nc2c1)c1cc(F)ccc1n3Cc1ccccn1
101.1	Cc1ccc(-c2nnc(NCc3nc4ccccc4[nH]3)c3ccccc23)cc1S(=O)(=O)N(C)C
100.6	CCCS(=O)(=O)c1c(S(=O)(=O)CCC)c2cc(-c3ccncc3)ccn2c1C(=O)N/N=C/c1ccc(OC)cc1
100.4	COc1ccc(CCn2c(SCC(=O)Nc3cc(C)[nH]n3)nc3c(sc4ccccc43)c2=O)cc1OC
105.1	CCn1ccc2c(cc(C(=O)NCc3cccnc3)n2C)c1=O
100.6	COc1ccc(NC(=O)Cn2nc(C(=O)Nc3ccccc3)ccc2=O)cc1OC
106.0	COC(=O)C1C(=O)NC(SCC(=O)Nc2ccc(F)cc2)=C(C#N)C1c1ccccc1OC (configuration not stated)

(more compounds)
GIV-Gai inh	SMILES
115.9	COc1cc(-c2cc(C)no2)ccc1S(=O)(=O)NC1CCN(Cc2ccccc2)CC1
104.8	Cc1ccc(C)c(N2CCN(c3ncc(S(=O)(=O)c4ccc(Cl)cc4)c(N)n3)CC2)c1
99.1	OCCN1CCN(c2ncnc3c2c(-c2ccccc2)cn3-c2ccc(Br)cc2)CC1
127.6	COc1ccccc1N(CC(O)CN(Cc1ccccc1)Cc1ccccc1)S(=O)(=O)c1ccccc1 (configuration not stated)
102.3	CNC(=O)N1CCC(c2nc(C(C)C)cs2)CC1
101.2	Cc1ccc(-c2cc(C(F)(F)F)n3nc(C(=O)N4CCOCC4)nc3n2)cc1
102.4	Cc1cc(-c2csc(S(=O)(=O)N3CCC(Cc4ccccc4)CC3)c2)on1
107.5	CC1(C)CC(=O)C2=C(C1)NC1=C(C(=O)c3ccccc31)C2c1ccc([N+](=O)[O-])o1 (configuration not stated)

(cont.)
GIV-Gai inh	SMILES
120.9	OCC1OC(Oc2cccc3ccccc23)C(O)C(O)C1O (configuration not stated)
104.6	COc1ccc2nc(-n3nc(C)c4c3NC(=O)CC4c3ccc(O)c(OC)c3)sc2c1 (configuration not stated)
97.6	COCCNC(=O)c1cc(S(=O)(=O)N2CCOCC2)ccc1SCc1cccc(OC)c1OC
107.4	CC(=O)Nc1ccc(-c2noc(C3CCCN(C(=O)c4ccc(F)c(Cl)c4)C3)n2)cc1 (configuration not stated)
98.6	Cc1nc(CCNC(=O)C2CCN(C(=O)c3ccc(Br)o3)CC2)cs1
100.6	CC(C)n1nccc1-c1csc(S(=O)(=O)N2CCCCC2)c1
97.1	CCOc1cc(C2Nc3ccc4ccccc4c3C3=C2C(=O)CC(C)(C)C3)ccc1OCc1ccccc1F (configuration not stated)
105.9	Cc1nnc(-c2ccc3ccn(CC(=O)N4CCN(Cc5ccc6c(c5)OCO6)CC4)c3c2)o1

Going on with the list:
GIV-Gai inh	SMILES
101.6	COc1ccc(CCNC(=O)c2c[nH]c3ccc(S(=O)(=O)N4CC(C)CC(C)C4)cc3c2=O)cc1OC (configuration not stated)
98.2	CC1(C)OC2OC(C(=O)NC(CCC(=O)OCc3ccccc3)C(=O)OCc3ccccc3)C3OC(C)(C)OC3C2O1 (configuration not stated)
106.9	Cc1nn2c3ccccc3n(CC(=O)c3ccc(Br)cc3)c2nc1=O
108.9	CCOc1ccc(NC(=O)CSc2nc3n[nH]c(C)c3c(=N)n2-c2cccc(Cl)c2C)cc1
96.4	C=CCOc1cccc(C2CC(=O)Nc3c2c(C)nn3-c2ccc3nnc(C)n3n2)c1 (configuration not stated)
106.2	COc1cc2c(cc1OC)C(CC#N)=NC(C)(C)C2
101.8	CCOc1ccc(-n2nnc3c(N4CCN(C(=O)CC5CCCCC5)CC4)ncnc32)cc1
106.5	Cn1cnc2cc(-c3noc(CNC(=O)Cc4ccc(Cl)cc4)n3)ccc21

Additional results follow:
GIV-Gai inh	SMILES
108.1	Cc1ccc(S(=O)(=O)N2CCN3CN(S(=O)(=O)c4ccc(C)cc4)CC([N+](=O)[O-])(C3)C2)cc1 (configuration not stated)
105.2	Cc1cc(C)cc(NC(=O)Cn2nc3c4sccc4ncn3c2=O)c1
106.7	Cc1csc(-c2cc(NC(=O)CNC(=O)c3ccccc3)c(C)s2)n1
100.2	Cc1nnc(NC(=O)NC2COc3ccccc3C2)s1 (configuration not stated)
103.5	CCOc1ccc(C2c3[nH]c4ccccc4c3CCN2C(=O)c2cc3cc(Br)ccc3o2)cc1 (configuration not stated)
127.6	Cc1cccc(C)c1Nc1c(-c2cccc(O)c2)nc2cnc(Br)cn12
112.4	CC1CN(c2ccccc2)C(c2ccccc2)N1c1ccccc1 (configuration not stated)
108.3	N#CC1(C#N)C2c3ccccc3C=CN2[C@@H](C(=O)C23CC4CC(CC(C4)C2)C3)[C@@H]1c1ccc(F)cc1 (some centres not stated)

(cont.)
GIV-Gai inh	SMILES
104.6	Cc1ccc(/C=C(/NC(=O)c2ccccc2)C(=O)NCCc2c[nH]c3ccccc23)o1
113.2	COc1cc(C2C(N3C(=O)c4ccccc4C3=O)C(=O)N2c2ccc(Cl)cc2)cc(OC)c1OC (configuration not stated)
110.7	COc1ccc(C2c3cccn3CCN2S(=O)(=O)c2ccc(Br)cc2)cc1 (configuration not stated)
109.2	CC(=O)N1c2c(ccc(C)c2C)C(C)CC12CCCCC2 (configuration not stated)
111.2	Cc1scc2nc(C3CCC3)nc(N3CCC(C(=O)NCCC4=CCCCC4)CC3)c12
98.0	CSc1ccc(C2Oc3ccccc3C3=C2C(c2ccc(C)cc2)n2ncnc2N3)cc1 (configuration not stated)
110.3	Cc1ccc(-c2cnc3ccccc3n2)cc1C
109.5	COC(=O)C1=C(C)OC(N)=C(C#N)C1c1ccc(F)cc1F (configuration not stated)

Later entries:
GIV-Gai inh	SMILES
113.5	CC(C)OC(=O)Nc1ccc2c(c1)N(C(=O)CCN1CCN(CCO)CC1)c1ccccc1CC2
109.4	CCN(CC)C(=O)CN1C(=O)C2(Nc3ccccc3C(=O)N2c2cccc(C(F)(F)F)c2)c2ccccc21 (configuration not stated)
114.1	O=C1CSC(c2cc3c(cc2[N+](=O)[O-])OCO3)N1c1ccc(Cl)c(Cl)c1 (configuration not stated)
100.8	Cn1c(=O)cc2c3c(c(Nc4ccccc4)ccc31)C(=O)c1ccccc1-2
106.5	Cc1nc2c(C(=O)O)cnn2c(C)c1Cc1ccc(Cl)cc1
111.1	CCc1ccc(C2(c3ccc(CC)cc3)CC2C(=O)Nc2ccc(F)cc2)cc1 (configuration not stated)
99.5	CC1CCCN(C(=O)CN2CCN(C)CC2)C1 (configuration not stated)
102.7	Cc1ccc(CN2CCN(C3CCN(C(=O)NC(C)(C)C)CC3)C2=O)cc1

7 compounds already listed, arranged by the number in GIV-Gai inh, falling.
compound | GIV-Gai inh
O=C1CSC(c2cc3c(cc2[N+](=O)[O-])OCO3)N1c1ccc(Cl)c(Cl)c1 (configuration not stated) | 114.1
CCc1ccc(C2(c3ccc(CC)cc3)CC2C(=O)Nc2ccc(F)cc2)cc1 (configuration not stated) | 111.1
CCN(CC)C(=O)CN1C(=O)C2(Nc3ccccc3C(=O)N2c2cccc(C(F)(F)F)c2)c2ccccc21 (configuration not stated) | 109.4
Cc1nc2c(C(=O)O)cnn2c(C)c1Cc1ccc(Cl)cc1 | 106.5
Cc1ccc(CN2CCN(C3CCN(C(=O)NC(C)(C)C)CC3)C2=O)cc1 | 102.7
Cn1c(=O)cc2c3c(c(Nc4ccccc4)ccc31)C(=O)c1ccccc1-2 | 100.8
CC1CCCN(C(=O)CN2CCN(C)CC2)C1 (configuration not stated) | 99.5

The results go on.
GIV-Gai inh	SMILES
109.0	CCOc1cccc2c1OC(c1cccc(OC)c1)N1N=C(c3cccc(OC)c3)CC21 (configuration not stated)
107.5	COc1cccc(-c2nc(-c3ccccc3)c(-c3ccccc3)[nH]2)c1
96.9	Cc1cc(C(=O)N(C)C)c(C)n1CCN(C)C
104.1	CCSc1nnc(-c2nn(C)c3c2CN(S(=O)(=O)c2ccc(F)cc2F)CC3)n1CC
101.5	CCCOc1ccccc1C1C(C#N)=C(N)Oc2n[nH]c(-c3ccc4c(c3)OCO4)c21 (configuration not stated)
105.2	COc1ccc(-c2noc(Cc3nc(-c4cc(C)c(C)cc4C)cs3)n2)cc1
98.6	O=C(CCc1ccccc1)NCc1c(-c2ccccc2)nc2n1CCS2
110.1	Cc1ccc(S(=O)(=O)N2CCCN(S(=O)(=O)c3ccc(C)cc3C)CC2)c(C)c1

The list goes on.
GIV-Gai inh	SMILES
103.2	O=C(CSc1nc2ccc(NC(=O)c3ccccc3Cl)cc2s1)NCC1CCCO1 (configuration not stated)
102.1	Cc1sc(-c2cc(C(F)(F)F)on2)cc1S(=O)(=O)Nc1ccccc1Cl
106.2	COc1cc(/C=c2\sc3nc4ccccc4n3c2=O)ccc1OCc1cccc(F)c1
118.5	O=C1CN(C(=O)c2ccccc2)c2ccccc2N1
119.8	CCOC(=O)c1c(NC(=O)CSc2nnc(CNC(=O)c3ccco3)n2-c2ccccc2OC)sc2c1CCC2
102.4	COc1cccc(C2CC(=O)Nc3c2cc(Br)c2ccccc32)c1OC (configuration not stated)
106.6	COc1ccc(-c2noc(CSc3nccn3-c3ccccc3)n2)cc1
110.4	CCC(=O)Nc1ccc(-c2cc(C(=O)NCCN(C)C)c3ccccc3n2)cc1

Additional results follow.
GIV-Gai inh	SMILES
105.1	COC(=O)Cc1nc(Nc2ccc(F)c(Cl)c2)c2c(C)c(C)sc2n1
96.6	CC(C)c1cc(C2CCCN2C(=O)c2cc(C(F)(F)F)nn2C)on1 (configuration not stated)
107.6	CCCN1CCN(S(=O)(=O)c2c(C)[nH]c(-c3nnc(C4CCC4)o3)c2C)CC1
101.7	Cc1ccc(NC(=O)c2ccc(=O)n(CC(=O)Nc3ccc(C)cc3C)n2)cc1
106.3	CCCOc1ccccc1C(c1c(C)n(C)n(-c2ccccc2)c1=O)c1c(C)n(C)n(-c2ccccc2)c1=O
113.9	COc1ccc(N2C(=O)CSC2c2cc3c(cc2Br)OCO3)c(OC)c1 (configuration not stated)
103.2	C=CCNC(=O)c1csc2c1CCCCC2
110.0	COc1cc(OC)cc(C(=O)N2CCN(C(=O)c3cc4ccccc4[nH]3)CC2)c1

(cont.)
GIV-Gai inh	SMILES
98.0	CCOc1c(OC)cccc1C1Nc2c(C)cc(C)cc2[C@H]2OCCC[C@@H]12 (some centres not stated)
104.2	Cc1nc(-c2ccc(S(=O)(=O)Nc3ccc(S(N)(=O)=O)cc3)cc2)co1
109.0	O=C(O)c1ccc(N2CC3CC(C2)c2cccc(=O)n2C3)c(NC(=O)c2cc3ccccc3oc2=O)c1 (configuration not stated)
101.3	CCN(Cc1ccccc1)S(=O)(=O)c1cc(-c2nc(C)cs2)sc1C
147.9	CCOC(=O)Cn1cc(CN2CCCC2c2c(C)noc2CC)c2ccccc21 (configuration not stated)
105.9	COc1ccc2c(c1)NC1(CCN(C(=O)Nc3ccc4c(c3)OCO4)CC1)c1cccn1-2
110.0	O=C(C1CCN(S(=O)(=O)c2ccc(-c3noc(-c4cnccn4)n3)cc2)CC1)N1CCCC1
114.2	Cc1ccc2c(c1)c(-c1ccccc1)c(-c1ccccc1)n2CC(O)CN1CCOCC1 (configuration not stated)

Grouped by structure, the compounds so far containing a COOH group (2)
GIV-Gai inh	SMILES
106.5	Cc1nc2c(C(=O)O)cnn2c(C)c1Cc1ccc(Cl)cc1
109.0	O=C(O)c1ccc(N2CC3CC(C2)c2cccc(=O)n2C3)c(NC(=O)c2cc3ccccc3oc2=O)c1 (configuration not stated)

(next part)
GIV-Gai inh	SMILES
101.4	CCCn1c(=O)c(C(=O)Nc2ccc(C)cc2Br)c(O)c2ccccc21
103.7	O=C(CSc1nnc(-c2ccccc2)c(-c2ccccc2)n1)N1CCCCC1
103.4	NC(=O)CNC(=O)c1sc2ncccc2c1-n1cccc1
101.6	O=C(NC1CCN(Cc2ccccc2)CC1)c1ccc2nc3ccc(Cl)cc3c(=O)n2c1
105.8	Cc1onc(-c2ccc(Br)cc2)c1C(=O)NC(C)c1ccccc1 (configuration not stated)
102.2	CCC(=O)Nc1cccnc1-c1ccc(C(=O)Nc2ccc(CC)cc2)cc1
124.6	COc1ccc(-c2cc3c(c(=O)[nH]2)c(=O)oc2ccccc23)cc1
104.4	CCOC(=O)c1[nH]c(C)c(CCC(=O)N2CCCC(C(=O)NCCCN3CCCCC3)C2)c1C (configuration not stated)
